Screening data deposited in PubChem BioAssay by Broad Institute.
ID4 binder – binders of human ID4 protein | small molecule microarray, Flag-ID4 binding, fluorescence F/B | calls only | hit rate 1.2% among 31,000;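 active = spot signal over background at p below 0.07 in all four prints; compounds were printed on slides so no solution concentration is given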;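 note: a binder raises fluorescence above local background on the spot; about 2 pmol printed per array spot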
Target sequence (P47928 whole entry, looked up): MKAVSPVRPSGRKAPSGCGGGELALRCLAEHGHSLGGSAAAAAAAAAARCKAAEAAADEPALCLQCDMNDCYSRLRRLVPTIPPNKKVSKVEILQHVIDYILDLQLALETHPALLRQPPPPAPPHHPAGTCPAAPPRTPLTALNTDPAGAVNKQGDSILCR
Calls only; i = inactive; + = active, no number.

compound	ID4 binder
C[C@H]1CN([C@@H](C)CO)C(=O)c2cc(C3=CCCCC3)cnc2O[C@@H]1CN(C)C(=O)c1ccc(F)cc1	i
CCOC(=O)c1c(NC(=O)CSc2nncn2C)sc(C)c1C	i
CN(CC(=O)Nc1ccccc1[N+](=O)[O-])S(=O)(=O)c1ccc(Cl)cc1	i
CCn1c(SCC(=O)Nc2ccc(Cl)cc2)nnc1-c1ccco1	i
O=C(CSc1nnc(-c2ccc(Cl)cc2)n1-c1ccc(F)cc1)Nc1ccccc1Cl	i
COCC(=O)N1[C@H](CO)[C@H](c2ccc(-c3cccnc3)cc2)[C@@H]1C#N	i
O=C(Nc1ccc2c(c1)[C@@H]1C[C@H](CC(=O)N3CCCCC3)O[C@@H](CO)[C@@H]1O2)Nc1ccccc1F	i
CCC1(C)Cc2c(sc3nc(SCC(=O)Nc4ccc(Cl)cc4)nc(N)c23)CO1 (stereo not drawn)	i
Cc1ccc(NS(=O)(=O)c2cccc(C(=O)Nc3ccccc3C(=O)O)c2)cc1	+
CS(=O)(=O)N(CC(=O)Nc1cccc(F)c1)Cc1ccccc1	i
Cc1ccccc1S(=O)(=O)N1[C@H](CO)[C@H](c2ccccc2)[C@@H]1C#N	i
Cc1cc(NC(=O)C(C)n2cc([N+](=O)[O-])cn2)ccc1Br (stereo not drawn)	i
COCCOC(=O)N1C(=O)[C@@]2(c3ccccc31)[C@H](c1ccccc1OCCO)N1[C@H](c3ccccc3)[C@H](c3ccccc3)OC(=O)[C@H]1[C@@H]2C(=O)N1CCc2cc(OC)c(OC)cc2C1	i
COc1ccc(CCNC(=O)c2c(-c3ccccc3)noc2C)cc1OC	i
C[C@H](CO)N1C[C@H](C)[C@H](CN(C)C)Oc2cc(C3=CCCC3)ccc2S1(=O)=O	i

Fetched one by one from the entries so far (six):
compound	ID4 binder
CCOC(=O)c1c(NC(=O)CSc2nncn2C)sc(C)c1C	i
C[C@H](CO)N1C[C@H](C)[C@H](CN(C)C)Oc2cc(C3=CCCC3)ccc2S1(=O)=O	i
COCC(=O)N1[C@H](CO)[C@H](c2ccc(-c3cccnc3)cc2)[C@@H]1C#N	i
C[C@H]1CN([C@@H](C)CO)C(=O)c2cc(C3=CCCCC3)cnc2O[C@@H]1CN(C)C(=O)c1ccc(F)cc1	i
COc1ccc(CCNC(=O)c2c(-c3ccccc3)noc2C)cc1OC	i
COCCOC(=O)N1C(=O)[C@@]2(c3ccccc31)[C@H](c1ccccc1OCCO)N1[C@H](c3ccccc3)[C@H](c3ccccc3)OC(=O)[C@H]1[C@@H]2C(=O)N1CCc2cc(OC)c(OC)cc2C1	i

Nothing new here: three of the compounds above.
compound	ID4 binder
C[C@H]1CN([C@@H](C)CO)C(=O)c2cc(C3=CCCCC3)cnc2O[C@@H]1CN(C)C(=O)c1ccc(F)cc1	i
CCOC(=O)c1c(NC(=O)CSc2nncn2C)sc(C)c1C	i
CN(CC(=O)Nc1ccccc1[N+](=O)[O-])S(=O)(=O)c1ccc(Cl)cc1	i

New compounds follow.
compound	ID4 binder
CC(O)c1cc(-c2ccc(Cl)cc2Cl)no1 (stereo not drawn)	i
CCC(=O)c1ccc(OCC(O)Cn2nc(C)c(Br)c2C)cc1 (stereo not drawn)	i
O=C(COc1ccc2oc3c(c2c1)CCCC3)Nc1cccnc1	i
C[C@@H]1CN([C@@H](C)CO)C(=O)c2cc(C#Cc3ccccc3)cnc2O[C@H]1CN(C)CC1CCOCC1	i
CCc1ccccc1OCC(=O)Nc1ccc(C)cc1[N+](=O)[O-]	i
O=C(C[C@H]1C=C[C@@H](NC(=O)c2ccc(F)cc2)[C@H](CO)O1)NCCc1ccccc1	i
O=C(C[C@@H]1C[C@@H]2c3cc(NC(=O)c4ccc5c(c4)OCO5)ccc3O[C@@H]2[C@@H](CO)O1)NC1CCCC1	i
O=C(NCCCN1CCCC1=O)c1cc(-c2cccnc2)nc2ccc(Cl)cc12	i
CN(CCc1ccc(Cl)c(Cl)c1)CC(O)COc1ccc(NS(C)(=O)=O)cc1 (stereo not drawn)	i
COc1ccc(NC(=O)N(C)C[C@@H]2Oc3cc(-c4cccc(C(=O)N(C)C)c4)ccc3S(=O)(=O)N([C@H](C)CO)C[C@@H]2C)cc1	i
C[C@H](CO)N1C[C@H](C)[C@@H](CN(C)C(=O)Cc2ccccc2)Oc2ncc(C#CCN(C)C)cc2C1=O	i
O=C(Nc1ccccc1C(=O)N1CCOCC1)C1COc2ccccc2O1 (stereo not drawn)	i
O=C(C[C@@H]1C=C[C@@H](NC(=O)C2CC2)[C@@H](CO)O1)NC1CCC1	i
CC1=C(C(=O)Nc2ccccc2C)C(c2ccccc2OCc2ccccc2)n2ncnc2N1 (stereo not drawn)	i
C[C@@H]1CN([C@@H](C)CO)S(=O)(=O)c2ccc(-c3ccncc3)cc2O[C@@H]1CN(C)C(=O)Nc1ccc(C(F)(F)F)cc1	i

Other results
compound	ID4 binder
O=C(Cn1cnc2sc(-c3ccccc3)cc2c1=O)Nc1cccc(C(F)(F)F)c1	i
O=C(CSc1nnc(-c2ccccc2)n1-c1ccccc1)Nc1ccc(C(F)(F)F)cc1	i
C[C@H]1CN([C@@H](C)CO)C(=O)c2cc(-c3cccc(F)c3)cnc2O[C@@H]1CN(C)C(=O)C1CC1	i
CCCN(C)C[C@@H]1Oc2ncc(-c3ccccc3)cc2C(=O)N([C@@H](C)CO)C[C@H]1C	i
C[C@H]1CN([C@@H](C)CO)C(=O)c2cc(C#Cc3ccccc3)cnc2O[C@H]1CN(C)CC1CCOCC1	i
C[C@H]1CN([C@@H](C)CO)S(=O)(=O)c2ccc(-c3ccccc3F)cc2O[C@H]1CN(C)S(C)(=O)=O	i
CC1=C(C(=O)Nc2ccccc2)C(CC(C)C)n2nc(SCc3cccc(C)c3)nc2N1 (stereo not drawn)	i
O=C(CSc1n[nH]c(-c2ccncc2)n1)Nc1ccc(Br)cc1	i
Cc1c(C(=O)Nc2nnc(SC/C=C/c3ccccc3)s2)oc2ccccc12	i
C/C=C/c1ccc2c(c1)O[C@@H](CN(C)CC1CCCC1)[C@H](C)CN([C@@H](C)CO)S2(=O)=O	i
O=C(NCc1ccco1)c1cccc(NC(=O)c2ccco2)c1	i
C[C@H](CO)N1C[C@H](C)[C@H](CN(C)CC2CC2)Oc2cc(C#Cc3ccccc3)ccc2S1(=O)=O	i
COCC#Cc1cnc2c(c1)C(=O)N([C@H](C)CO)C[C@H](C)[C@@H](CN(C)C(=O)CN1CCOCC1)O2	i
C[C@@H]1CN([C@@H](C)CO)C(=O)c2cc(C#CC(C)(C)O)cnc2O[C@@H]1CN(C)Cc1cncnc1	i
CC(C)=CCc1c(O)ccc2ccc(=O)oc12	i

Continued:
compound	ID4 binder
CCS(=O)(=O)CCn1c([N+](=O)[O-])cnc1C	i
C[C@@H]1CN([C@@H](C)CO)C(=O)c2cc(-c3ccccc3)cnc2O[C@H]1CN(C)C(=O)C1CCCCC1	i
Cc1cccc(OCC(=O)Nc2cc(-c3nc4cc(Cl)ccc4o3)ccc2C)c1	i
O=C(CSc1nc2[nH]ncc2c(=O)n1-c1ccccc1)c1ccc2c(c1)OCCO2	i
O=C(CCN1CCCCC1)N[C@H]1CC[C@H](CC(=O)N2CCC(Cc3ccccc3)CC2)O[C@H]1CO	i
C[C@@H]1CN([C@@H](C)CO)C(=O)c2cc(C3=CCCC3)cnc2O[C@H]1CN(C)C(=O)C1CCC1	i
CCC(=O)N(C)C[C@H]1Oc2ncc(/C=C/c3ccccc3)cc2C(=O)N([C@@H](C)CO)C[C@H]1C	i
Cc1ccc(N(CC(O)CN2C(=O)NC(C)(C)C2=O)S(=O)(=O)c2ccccc2)cc1 (stereo not drawn)	i
C/C=C/c1cnc2c(c1)C(=O)N([C@H](C)CO)C[C@H](C)[C@H](CN(C)Cc1ccc(F)cc1)O2	i
C[C@H]1CN([C@@H](C)CO)C(=O)c2cc(C#CC3CC3)cnc2O[C@@H]1CN(C)C	i
Cc1ccc(S(=O)(=O)N(C)C[C@H]2Oc3ncc(-c4ccncc4)cc3C(=O)N([C@@H](C)CO)C[C@@H]2C)cc1	i
CCn1c2ccccc2n2c(SCCC(=O)O)nnc12	i
COc1ccc(C2OCC3(O)C(c4ccc(OC)c(OC)c4)OCC23)cc1OC (stereo not drawn)	i
C[C@H](CO)N1C[C@H](C)[C@H](CN(C)C(=O)CCN(C)C)OCc2ccccc2-c2ccccc2C1=O	i
O=C(O)CCc1ccc(-c2cccs2)n1-c1cccc(C(F)(F)F)c1	i

Additional compounds follow.
compound	ID4 binder
COc1ccc(C(=O)NCC(=O)Nc2ccc(C)c(Cl)c2)cc1	i
C[C@H](CO)N1C[C@H](C)[C@@H](CN(C)C(=O)C2CCCCC2)Oc2ncc(Br)cc2C1=O	i
C[C@H](CO)N1C[C@H](C)[C@@H](CN(C)C(=O)Cc2ccccc2)Oc2ncc(-c3cncnc3)cc2C1=O	i
CC(C)NC(=O)N(C)C[C@@H]1Oc2ncc(C3=CCCCC3)cc2C(=O)N([C@H](C)CO)C[C@H]1C	i
CCOC(=O)CCS(=O)(=O)c1nc(-c2ccccc2)cc(C(F)(F)F)n1	i
O=C(C[C@@H]1CC[C@@H](NC(=O)C2CCC2)[C@@H](CO)O1)NCCCN1CCOCC1	i
CNC[C@H]1Oc2cc(C#CC3CCCCC3)ccc2S(=O)(=O)N([C@@H](C)CO)C[C@H]1C	i
C=CCSc1ccc(OCC(F)(F)F)c(C#N)c1OCC(F)(F)F	i
Cc1cc([N+](=O)[O-])ccc1NC(=O)CSc1nnc(-c2cc3ccccc3o2)n1C	i
CNC[C@H]1Oc2cc(C#CC3CCCC3)ccc2S(=O)(=O)N([C@@H](C)CO)C[C@@H]1C	i
Cc1ccc(NC(=O)COc2ccc(Br)cc2CO)cc1	i
C[C@@H]1CN([C@H](C)CO)C(=O)c2cc(C#Cc3cccnc3)cnc2O[C@H]1CN(C)S(C)(=O)=O	i
C[C@H](CO)N1C[C@H](C)[C@@H](CN(C)S(C)(=O)=O)Oc2ncc(C#Cc3cccnc3)cc2C1=O	i
COc1ccc(NC(=O)CN2CCN(S(=O)(=O)c3ccccc3)CC2)cc1	i
O=C(C[C@@H]1C=C[C@@H](NS(=O)(=O)c2cccc(F)c2)[C@H](CO)O1)N1CCCCC1	i

Carrying on.
compound	ID4 binder
CN(CC(=O)Nc1ccc(Cl)c(C(F)(F)F)c1)S(=O)(=O)c1ccc(F)cc1	i
O=C(CSc1nnc(-c2ccncc2)n1-c1ccccc1)c1ccc([N+](=O)[O-])cc1	i
COc1ccc(NC(=O)N[C@@H]2C=C[C@@H](CC(=O)NC3CCC3)O[C@@H]2CO)cc1	i
CN1CCN2c3ncccc3Cc3ccccc3C2C1 (stereo not drawn)	i
CC(C(=O)Nc1ccc(Oc2ccccc2)cc1)N1c2cccc3cccc(c23)S1(=O)=O (stereo not drawn)	i
C[C@@H]1CN([C@H](C)CO)C(=O)c2cc(C#Cc3cccc(F)c3)cnc2O[C@@H]1CN(C)Cc1ccccn1	i
O=C1CCC(N2C(=O)c3ccccc3C2=O)C(=O)N1 (stereo not drawn)	i
COCCOC(=O)N1C(=O)[C@@]2(c3cc(C#Cc4ccc(OC)cc4)ccc31)[C@H](C(N)=O)[C@H]1C(=O)O[C@H](c3ccccc3)[C@H](c3ccccc3)N1[C@@H]2c1ccccc1OCCO	i
COc1cccc(OCC(=O)Nc2ccc(Cl)cc2C(=O)O)c1	i
NC(=O)CSc1nnc(Cc2ccccc2)n1-c1ccc(Cl)cc1	i
O=C(N[C@H]1C=C[C@@H](CC(=O)N2CCC(Cc3ccccc3)CC2)O[C@H]1CO)c1cnccn1	i
O=C(CSc1nc2ccccc2c(=O)n1-c1ccccc1)Nc1ccc(Br)cc1Cl	i
COc1ccc(-n2c(SCC(=O)Nc3ccc(Cl)cc3Cl)nnc2-c2ccccc2)cc1	i
O=C(NCC[C@H]1CC[C@H](NC(=O)C2CCCC2)[C@H](CO)O1)c1ccc(F)cc1	i
O=C(Cn1cc(C(=O)c2cccs2)c2ccccc21)Nc1ccccc1	i

Next part:
compound	ID4 binder
CC(NS(=O)(=O)c1ccc(Cl)cc1)C(=O)Nc1cc(Cl)ccc1Oc1ccccc1 (stereo not drawn)	i
CCOc1cccc(-c2nnc(SCC(=O)Nc3cccc(Cl)c3C)n2C)c1	i
C/C=C/c1ccc2c(c1)O[C@H](CN(C)Cc1cccc(F)c1)[C@@H](C)CN([C@H](C)CO)S2(=O)=O	i
CCOc1ccc(C(C)=O)cc1CSc1nc(C)cc(C)n1	i
CN(C)C(=O)C[C@@H]1C=C[C@@H](NC(=O)c2ccc(F)cc2)[C@H](CO)O1	i
C/C=C/c1ccc2c(c1)O[C@@H](CN(C)C(=O)Nc1ccc(C(F)(F)F)cc1)[C@@H](C)CN([C@@H](C)CO)S2(=O)=O	i
C[C@@H]1CN([C@H](C)CO)C(=O)c2cc(C#CC3CCCC3)cnc2O[C@@H]1CN(C)C(=O)C1CCC1	i
C[C@@H](O)C#Cc1cnc2c(c1)C(=O)N([C@@H](C)CO)C[C@H](C)[C@@H](CN(C)Cc1cccc(F)c1)O2	i
O=C(NCc1nc(-c2ccccc2)no1)c1ccc(Br)o1	i
CC1CC[C@@]2(OC1)O[C@H]1CC3C4CC=C5C[C@@H](O[C@@H]6O[C@H](CO)[C@@H](O[C@@H]7O[C@@H](C)[C@H](O)[C@@H](O)[C@H]7O)[C@H](O)[C@H]6O[C@@H]6O[C@@H](C)[C@H](O)[C@@H](O)[C@H]6O)CC[C@]5(C)C4CC[C@]3(C)[C@@]1(O)[C@@H]2C (stereo partly drawn)	i
COc1cc2c(cc1OC)CN(C(=O)[C@H]1[C@@H]3C(=O)O[C@@H](c4ccccc4)[C@@H](c4ccccc4)N3[C@@H](c3ccc(O)cc3)[C@]13C(=O)Nc1ccc(C#CC4(O)CCCCCC4)cc13)CC2	i
CC(=O)c1cccc(-n2nnnc2SCC(=O)Nc2ccccc2F)c1	i
C[C@H](CO)N1C[C@H](C)[C@H](CN(C)C)Oc2ncc(C3=CCCC3)cc2C1=O	i

Only part of the results is shown; the hit share may differ from the screen's.
